CtBP-E1A inh: CtBP/E1A binding inhibition; AlphaScreen GST-E1A/His-CtBP binding, 1536-well; stronger effect = lower value; control for the full effect not named in the record; activity change, % (test concentration not listed); hit rate 0.49% among 340,000; in the data active means activity change below about -65%; inconclusive means about -30% to -65%; inactive means above about -30%; note: % is set by controls: 0 for no effect and ±100 for the full control effect; compound concentration not given in the record
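GST-E1A and His-tagged CtBP (125 nM each as 5X stock) were preincubated with pin-transferred compound for 2 h at 37 °C in the dark, then glutathione donor and nickel acceptor beads were added for 1 h before AlphaScreen reading.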
Six1-Eya2 inh: Six1/Eya2 interaction inhibition | activity change, % (concentration not given with the values) | AID 651725 | AlphaScreen GST-Six1/His-Eya2 binding, biochemical; stronger effect = lower value; control for the full effect not named in the record | Q15475+O00167 | hit rate 0.56% among 360,000; in the data active = activity change below about -65%; inconclusive = about -30% to -65%; inactive = above about -30%; note: % is set by controls: 0 for no effect and ±100 for the full control effect
Target sequence (O00167 whole entry, looked up): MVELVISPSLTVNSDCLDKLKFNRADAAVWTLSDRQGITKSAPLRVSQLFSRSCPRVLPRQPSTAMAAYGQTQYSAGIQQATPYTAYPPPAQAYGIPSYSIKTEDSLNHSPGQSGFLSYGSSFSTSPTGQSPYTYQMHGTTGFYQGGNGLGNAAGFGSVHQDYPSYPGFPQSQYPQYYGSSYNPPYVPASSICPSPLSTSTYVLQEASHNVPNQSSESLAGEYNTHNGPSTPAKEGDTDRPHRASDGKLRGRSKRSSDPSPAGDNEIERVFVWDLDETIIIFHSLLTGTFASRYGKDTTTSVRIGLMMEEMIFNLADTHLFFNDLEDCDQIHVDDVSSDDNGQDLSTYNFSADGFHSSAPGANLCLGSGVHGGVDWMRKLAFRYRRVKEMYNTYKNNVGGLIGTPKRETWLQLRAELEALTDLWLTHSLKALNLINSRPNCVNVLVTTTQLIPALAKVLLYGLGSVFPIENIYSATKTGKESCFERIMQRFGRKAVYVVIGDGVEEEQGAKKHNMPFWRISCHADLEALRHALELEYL
Target sequence (Q15475 whole entry, looked up): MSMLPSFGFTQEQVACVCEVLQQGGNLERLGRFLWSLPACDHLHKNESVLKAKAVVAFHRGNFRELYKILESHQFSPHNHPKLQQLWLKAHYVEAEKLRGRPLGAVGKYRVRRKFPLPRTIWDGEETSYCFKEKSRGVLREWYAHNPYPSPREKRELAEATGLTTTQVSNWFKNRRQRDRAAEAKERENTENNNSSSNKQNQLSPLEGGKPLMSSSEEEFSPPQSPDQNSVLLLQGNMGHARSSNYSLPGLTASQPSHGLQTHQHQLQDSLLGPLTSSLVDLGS
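GST-Six1 + His-Eya2 (5X stock: 250/500 nM); Tris pH 8.0, 300 mM NaCl, 0.05% BSA, 0.02% Tween 20; GSH donor/Ni acceptor beads; 1 h 37 °C dark; AlphaScreen readout.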
gsp ag: agonists of gsp mutant (McCune-Albright syndrome); Potency, µM (doses to about 76.9 µM), without a hit: at the top dose activation (cAMP increase), hits mostly activators; gsp mutant cells, cAMP HTRF, 30 min; control for the full effect not named in the record; hit rate 0.13% among 340,000; active = well fitted activation curve with a large enough effect; inconclusive = small, poorly fitted or top-dose-only effect, or another doubt; inactive = no such curve, though single readings can be large or run the other way; cell line not stated here;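 note: phosphodiesterase inhibitor Ro 20-1724 added with compounds to block cAMP breakdown; potency is the fitted concentration of half-maximal effect; nearly all actives have a fitted effect of over 60% in size; about a fifth of the inactives were tested at one dose only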
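Cells stably selected in G418 were plated at 2000/well, grown 16-24 hr, then given compounds in DMSO with the PDE inhibitor […] (300 uM solution added) for 30 min at 37C; cAMP was read by HTRF.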
D2 agonist: activates the human D2 dopamine receptor. P14416. DiscoveRx PathHunter D2 beta-arrestin, luminescence, 90 min; 100% = 57 uM dopamine signal. activation, % (test concentration not listed). hit rate 0.084% among 360,000. AID 624465; in the data active = activation above about 40%; inconclusive = about 15% to 40%; inactive = below about 15%; note: compound concentration not given in the record; the text of the record calls up to 30% inactive
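DiscoveRx PathHunter D2 beta-arrestin cells (2,100/well) attached overnight, then compound-stimulated 90 min at 37 C in HBSS/10 mM HEPES/0.1% Tween-20 buffer; beta-galactosidase complementation read by luminescence after 1 h at ambient temperature. Dopamine 57 uM final (EC100) as control.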
gsp antag: antagonists of gsp mutant (McCune-Albright syndrome); gsp-mutant cells, cAMP HTRF, 30 min; control for the full effect not named in the record; Potency, µM (top dose mostly 76.9 µM), inactives show top-dose activity change, negative = inhibition, most hits filed as inhibitors; hit rate 0.4% among 340,000; active = falling curve of any shape with a large fitted effect; inconclusive = falling curve, mostly with a smaller effect; inactive = flat or rising curve; cell line not stated here;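 note: intracellular cAMP measured with PDE inhibitor Ro 20-1724 present during compound exposure; potency is the fitted concentration of half-maximal effect; % is set by controls: 0 for no effect and ±100 for the full control effect; nearly all actives have a fitted effect of over 65% in size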
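HTRF cAMP measurement after 30 min RT detection following 30 min, 37C compound treatment alongside […] (added as 300 uM solution) in G418-selected cells seeded at 2000/well and grown 16–24 h.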
D2 PAM: potentiates the human D2 dopamine receptor allosterically; P14416; DiscoveRx D2 beta-arrestin cells, luminescence, 90 min; 100% = 57 uM dopamine signal; potentiation, % (concentration not given with the values); hit rate 0.23% among 360,000; AID 624464; active = potentiation of 50% or more; inconclusive = 30% to 50%; inactive = 30% or less;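 note: compound concentration not given in the record; tested on top of an EC20 dose of dopamine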
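D2 cells co-treated with compound plus 50 nM dopamine (EC20) for 90 min at 37 deg C to detect potentiation. Beta-arrestin recruitment was read as enzyme-fragment luminescence after 1 h at ambient temperature. Full response was set by 57 uM dopamine.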
An asterisk follows results filed as active; ? = inconclusive; · = no result given; [ ] = another dose, or the depositor's remark. Random draw from the library; 1.4% or so of the library scored in one or more.

nr | smiles | CtBP-E1A inh | Six1-Eya2 inh | gsp ag | D2 agonist | gsp antag | D2 PAM
1 | Clc1ccc(CNc2cnccn2)cc1 | -4 | -9 | 0%[15.4 µM] | -2.9 | 12% | -5
2 | CCC(=O)Nc1ccccc1C(=O)NC1CCCCC1 | -10 | 4 | 23% | -0.8 | 5% | -6
3 | CC(=O)c1ccc(NC(=O)C2(c3ccccc3)CC2(Cl)Cl)cc1 (centres undefined) | 5 | -1 | 21%[15.4 µM] | -1.5 | 10% | -6
4 | Nc1ccc2c(C(F)(F)F)cc(C(F)(F)F)nc2n1 | -5 | -1 | 16%[15.4 µM] | -6.3 | 2% | -3
5 | O=C(CC1SC(=NCC2CCCO2)NC1=O)Nc1cccc2ccccc12 (centres undefined) | 10 | 0 | -11% | -2.9 | 3% | -4
6 | COC(=O)CCN(C(=O)c1ccc(N2CCCC2)c([N+](=O)[O-])c1)c1ccccn1 | -2 | 1 | 1% | -1.7 | -2% | -1
7 | COc1ccc(-c2ccc(CN3C(CC(C)C)C(=O)N(Cc4cn(CCC5OCCO5)nn4)CCS3(=O)=O)cc2)cc1OC (centres undefined) | 0 | -7 | -51%[inhibitor] | 1.5 | · | 2
8 | CC1CCCCN1C(=O)COC(=O)Cc1c[nH]c2ccccc12 (centres undefined) | 6 | 7 | -3%[15.4 µM] | -1.4 | -3% | -24
9 | Cc1ccc(C(=O)NCCc2cccc(Cl)c2)cc1[N+](=O)[O-] | -17 | -10 | ? | -1.4 | -23% | -30
10 | CN1CCN(C(=O)CCN2C(=O)/C(=C/c3ccccc3Cl)SC2=S)CC1 | -20 | -8 | 29% | -2.7 | -4% | -5
11 | O=S(=O)(c1ccc(C2=CSC3=NCCN23)cc1)N1CCOCC1 | 3 | 6 | 14% | 0.2 | 1%[15.4 µM] | 2
12 | C[C@@H]1CN([C@@H](C)CO)C(=O)c2cccc(NC(=O)Nc3ccccc3)c2O[C@H]1CN(C)C(=O)Nc1cccc2ccccc12 | 3 | -7 | -1% | 0.4 | ? | -9
13 | CC(=O)Nc1ccc(NC(=O)C2CCCN2C(=O)Nc2ccc(F)cc2)cc1 (centres undefined) | 2 | 6 | ? | 4.4 | 5% | -2
14 | O=C(COC(=O)c1cc([N+](=O)[O-])ccc1N1CCOCC1)NCc1ccccc1 | -16 | 5 | -56%[inhibitor] | -5.4 | · | -6
15 | O=C1c2cccnc2C(=O)N1Cc1ccc(S(=O)(=O)N2CCOc3ccc(Cl)cc32)cc1 | -19 | -5 | 7% | -1.2 | -1% | ?

An excerpt of these results, field by field:
13. CC(=O)Nc1ccc(NC(=O)C2CCCN2C(=O)Nc2ccc(F)cc2)cc1 (centres undefined)
  CtBP-E1A inh: 2	Six1-Eya2 inh: 6	gsp ag: ?	D2 agonist: 4.4	gsp antag: 5%	D2 PAM: -2

3. CC(=O)c1ccc(NC(=O)C2(c3ccccc3)CC2(Cl)Cl)cc1 (centres undefined)
  CtBP-E1A inh: 5	Six1-Eya2 inh: -1	gsp ag: 21%[15.4 µM]	D2 agonist: -1.5	gsp antag: 10%	D2 PAM: -6

5. O=C(CC1SC(=NCC2CCCO2)NC1=O)Nc1cccc2ccccc12 (centres undefined)
  CtBP-E1A inh: 10	Six1-Eya2 inh: 0	gsp ag: -11%	D2 agonist: -2.9	gsp antag: 3%	D2 PAM: -4

9. Cc1ccc(C(=O)NCCc2cccc(Cl)c2)cc1[N+](=O)[O-]
  CtBP-E1A inh: -17	Six1-Eya2 inh: -10	gsp ag: ?	D2 agonist: -1.4	gsp antag: -23%	D2 PAM: -30

(listing goes on)
nr | smiles | CtBP-E1A inh | Six1-Eya2 inh | gsp ag | D2 agonist | gsp antag | D2 PAM
16 | CCC1(C)NC(=O)N(CC(=O)N2N=C(c3ccccc3)CC2c2ccc(OC)cc2)C1=O (centres undefined) | 0 | 3 | 3%[15.4 µM] | -2.8 | 7% | -4
17 | CC(C)OC(=O)c1nnn(-c2nonc2N)c1CSc1ccccn1 | 5 | -12 | -42%[inhibitor] | 2.2 | -3% | -4
18 | Cc1ccc(NC(=O)CN(C)C(=O)c2sc3cc(Cl)ccc3c2Cl)cc1 | 3 | 3 | -2% | -3.0 | -2% | -8
19 | CCCCCCn1c(CN2CCN(C(=O)c3ccco3)CC2)nc2c1c(=O)n(C)c(=O)n2C | -3 | -17 | ? | -6.4 | -8% | -5
20 | Cn1nc([N+](=O)[O-])nc1Oc1ccccc1N | -6 | 0 | -3% | -0.7 | 14% | 9
21 | CN(C)CCn1c(NCc2ccc3c(c2)OCO3)nc2ccccc21 | · | 2 | 6% | -5.0 | 1% | -70
22 | COCCNC(=O)c1cc(-c2ccccc2)nn1CC1CC(c2cccnc2)=NO1 (centres undefined) | 3 | 5 | · | 1.6 | 6% | -3
23 | CC[n+]1c(-c2ccc(C)cc2)csc1Nc1c(C)n(C)n(-c2ccccc2)c1=O | -8 | -15 | -24% | 3.4 | -11% | -41
24 | C=CCNC(=S)Nc1cc(S(=O)(=O)N2CCOCC2)ccc1-n1cncn1 | -7 | 6 | -45%[inhibitor] | 0.9 | 6% | -12
25 | CCOc1ccc(N2CC(C(=O)NCCN3C(=O)S/C(=C/c4cccnc4)C3=O)CC2=O)cc1 (centres undefined) | -4 | 0 | 29% | -0.9 | 7% | -12
26 | Nc1nc(NCC(=O)O)nc(N2CCCCCC2)c1[N+](=O)[O-] | -17 | -7 | 0%[15.4 µM] | -3.7 | 3% | -6
27 | CCc1nnc(NC(=O)CCC(=O)N2CCN(C3CCCCC3)CC2)s1 | 9 | 1 | ? | -0.7 | 2% | -8
28 | Cc1cccc(CN2CCC(C(=O)Nc3ccc(-n4nc(C)cc4C)cc3)CC2)n1 | 4 | -4 | -33% | -3.8 | 0% | 7
29 | CO/N=C/c1ccc(N2CCN(C(=O)c3ccc(C)cc3)CC2)c([N+](=O)[O-])c1 | ? | ? | 1% | -2.5 | ? | 5
30 | O=C(Nc1ccc2c(c1)Cc1ccccc1-2)c1ccccc1F | 1 | 6 | -4%[15.4 µM] | 2.9 | 5% | -6
31 | COCCn1c(N2CCCC2)nc2c1c(=O)[nH]c(=O)n2C | 5 | 9 | 10%[15.4 µM] | 0.3 | -10% | -5
32 | COc1ccccc1NC(=O)CCC(=O)Nc1ccccc1OC | -9 | 4 | ? | -1.9 | 9% | -9
33 | C=CCOCCN(CCOCC=C)C1=NS(=O)(=O)c2ccccc21 | · | 0 | 9% | 6.4 | -1% | -12
34 | CCCCCc1nc2c(c(=O)c3ccccc3n2C)c(=O)n1Cc1ccc(OC)cc1 | · | -1 | ? | -3.3 | -9% | -15
35 | Cc1[nH]c2ccccc2c1C(=O)CSc1nc2ccccc2c(=O)n1CCCN1CCOCC1 | -1 | -7 | ? | -4.5 | -25% | -15
36 | Cc1ccc(SCc2c(C#N)c3ccccc3n2C)cc1 | 32 | 36 | 17% | -2.3 | 7% | -14
37 | Cc1ccc([N+](=O)[O-])c(OCCN2CCc3ccccc3C2)c1 | -10 | -3 | -6% | 3.3 | 5% | -3
38 | CCC(=O)Nc1cc(C)c(NC(=O)c2ccco2)cn1 | 6 | 11 | 5% | -1.1 | -4% | -14
39 | Cc1ccc(NS(=O)(=O)c2cccc(C(=O)NC3CCN(Cc4ccccc4)CC3)c2)cc1 | -6 | -3 | -44%[inhibitor] | -0.3 | -2% | -28
40 | CC1(C)CC(=O)C(N=Nc2c(F)cccc2F)=C(O)C1 | 2 | 1 | -7%[15.4 µM] | -6.3 | 14% | -14
41 | NC(=O)CC(NC(=O)Cc1ccc(Cl)cc1)c1ccc(NC2CCCCCC2)c([N+](=O)[O-])c1 (centres undefined) | · | -12 | -9% | -1.5 | 6% | -11
42 | COc1ccc(CCNC(=O)c2ccco2)cc1OC | 0 | 9 | -4%[15.4 µM] | -1.8 | -11% | -16
43 | CC(C)c1cc(=O)n2[nH]c(SCc3ccc(Cl)cc3)nc2n1 | 1 | 3 | ? | -2.5 | -18% | 12
44 | CCOC(=O)c1[nH]c(C)c(C(=O)NCC2CCCO2)c1C (centres undefined) | 0 | -6 | 10% | -1.3 | 8% | -12
45 | Nc1cc([N+](=O)[O-])cc2oc(-c3ccccc3)cc12 | · | ? | 27% | 1.1 | -24% | -8
46 | Cc1ccc(C2C(C(=O)c3ccco3)=C(O)C(=O)N2c2ncccn2)cc1 (centres undefined) | 0 | 11 | 21%[15.4 µM] | -2.7 | 4% | -10
47 | C=CC[N+](C)(C)CC(=O)OCc1ccccc1 | · | 1 | ? | -1.9 | 4% | 1
48 | CN1CCC(N(C)S(=O)(=O)c2ccc(NC(=O)COc3ccc(Cl)cc3)cc2)CC1 | -3 | 0 | ? | -3.0 | 7% | -2
49 | CCOC(=O)C1Cn2c(nc3c(c2=O)C(C)(CC)Cc2ccccc2-3)S1 (centres undefined) | 4 | 2 | -11% | -2.0 | ? | -23
50 | CC(C)(C)C1CCC(CN2C(Nc3ccccc3)=NC[C@@H]2Cc2ccccc2)CC1 (some centres undefined) | -6 | -8 | · | 0.4 | 13% | -23
51 | COc1ccccc1NC(=O)C1=C(C)NC2=C(C(=O)CCC2)C1c1ccc2c(c1)OCO2 (centres undefined) | -3 | -3 | -25% | -1.5 | ? | -2
52 | Cc1nnc2n(C3CCCCC3)c(=O)c3c4c(sc3n12)COC(C)(C)C4 | -2 | 7 | 10% | -1.8 | -7% | 5
53 | O=S(=O)(Nc1ncccn1)c1ccc(-n2cnnn2)cc1 | · | 7 | 4% | -1.2 | 5% | -42
54 | Cn1c(=O)c2cc(NC(=O)Cc3cccnc3)ccc2n1-c1ccc2ccccc2c1 | 0 | -15 | · | 3.3 | · | -8
55 | CCOc1ccc(OCCC(=O)OCC(=O)Nc2ccc(Cl)cn2)cc1 | -1 | -2 | -28% | -0.7 | -6% | 14
56 | C/C=N\NC(=O)COc1cc(C)ccc1C | · | -10 | -2%[15.4 µM] | 1.3 | -5% | -8
57 | COc1ccc(OCc2cc(C(=O)N3CCCN(C(C)=O)CC3)no2)c(Cl)c1 | 2 | 3 | 15% | 1.4 | 9% | -3
58 | O=C(Nc1ccc2[nH]c(=O)[nH]c2c1)Nc1ccc(F)cc1F | 6 | 1 | 8% | -1.8 | 3% | 0
59 | CC(OC(=O)C1CCCCC1)C(=O)Nc1ccc(S(N)(=O)=O)cc1 (centres undefined) | · | 20 | 2% | 3.1 | 2% | 4
60 | CN(C)S(=O)(=O)c1ccc(C(=O)OCC(=O)NCc2ccccc2)cc1 | 13 | -2 | -10%[15.4 µM] | 0.9 | 6% | -6
61 | COC(=O)c1nc2n(n1)C(c1cccc(Cl)c1)C1=C(CC(C)(C)CC1=O)N2 (centres undefined) | -2 | 6 | 6% | 1.2 | -9% | -3
62 | Cn1nccc1C(=O)N/N=C/c1cccnc1 | · | -1 | -13% | -8.0 | 5% | -13
63 | N#Cc1ccsc1NC(=O)c1ccccn1 | ? | -67* | -3% | 1.2 | 13% | -3
64 | Cc1cc(N2CCCCC2)c(F)cc1[N+](=O)[O-] | -1 | -3 | -27% | 1.0 | -25% | -12

Screening data as filed in PubChem BioAssay.
